Vaccinia mCherry: vaccinia inhibition (mCherry reporter) | Potency, µM (series often up to 36.5 µM), inactives show at the highest dose activity change, negative = inhibition, hits mostly inhibitors | AID 720579 | Vaccinia virus mCherry reporter infection, fluorescence; about a quarter of the inactives have no number | 0.63% of 310,000 active; active = well fitted inhibition curve with a large enough effect; inconclusive = small, poorly fitted or top-dose-only effect; inactive = no such curve, though single readings can be large or run the other way; tested in A549 cells; also: nearly all actives have a fitted effect of over 35% in size; inactives centre near -10
VACV Venus inh: inhibitors of vaccinia virus (Venus reporter); Potency, µM (series often up to 36.5 µM), for inactives: at the highest dose activity change, negative = inhibition, hits mostly inhibitors; 0.46% of 330,000 active; Vaccinia virus Venus reporter expression, fluorescence; active means well fitted inhibition curve with a large enough effect; inconclusive means small, poorly fitted or top-dose-only effect; inactive means no such curve, though single readings can be large or run the other way; tested in A549 cells; also: nearly all actives have a fitted effect of over 30% in size; inactives centre near -10
* marks the source's active call; other numbers are inactive results; i = inactive; u = inconclusive; x = not tested or not shown; [ ] = dose if it differs, or a comment. % is scaled to controls: 0 for no effect and ±100 for the full control effect; potency is read from the fitted curve at half-maximal effect. Random draw from the library. About 0.82% of those tested had a hit in this group.

Preview:
| molecule | Vaccinia mCherry | VACV Venus inh |
| --- | --- | --- |
| CCOC(=O)c1ccc(N=C2SC(C(=O)NC)CC(=O)N2Cc2ccc(F)cc2)cc1 (centres undefined) | i | -12% |
| O=C(c1ccc2c(c1)OCO2)N1CCN=C1SCc1cccnc1 | 30%[activator] | 2% |
| CC(C(=O)OCC(=O)Nc1cccc(S(=O)(=O)N2CCOCC2)c1)N1C(=O)c2ccccc2C1=O (centres undefined) | -3% | -13% |
| Cc1ccc(N(CC(N)=O)C2SC(=O)N(Cc3ccccc3)C2=O)cc1 (centres undefined) | -9% | -5% |

Main list, repeating the preview:
| molecule | Vaccinia mCherry | VACV Venus inh |
| --- | --- | --- |
| CCOC(=O)c1ccc(N=C2SC(C(=O)NC)CC(=O)N2Cc2ccc(F)cc2)cc1 (centres undefined) | i | -12% |
| O=C(c1ccc2c(c1)OCO2)N1CCN=C1SCc1cccnc1 | 30%[activator] | 2% |
| CC(C(=O)OCC(=O)Nc1cccc(S(=O)(=O)N2CCOCC2)c1)N1C(=O)c2ccccc2C1=O (centres undefined) | -3% | -13% |
| Cc1ccc(N(CC(N)=O)C2SC(=O)N(Cc3ccccc3)C2=O)cc1 (centres undefined) | -9% | -5% |
| COc1cc(N(C)C)c(OC)cc1C=O | -14% | -3% |
| O=C(Nc1ccc(OCC(=O)N2CCOCC2)cc1)c1ccccc1Cl | -1% | 0% |
| O=C(/C=C/c1ccc(O)c(O)c1)O[C@H]1C[C@@](O)(C(=O)O)CC(O)C1O (some centres undefined) | -11% | -3% |
| COC(=O)c1cc(-c2ccc(OC)cc2F)nc2nc(SC)[nH]c(=O)c12 | u | -7% |
| COC(=O)CN1C(=O)N/C(=C/c2ccc(OC)cc2)C1=O | -16% | -3% |
| O=C(CN1CCOCC1)NCC12CC3CC(CC(C3)C1)C2 | x | -19% |
| CCn1nc(C(=O)OC2CCOC2=O)c2ccccc2c1=O (centres undefined) | -13% | -7% |
| Cc1ccc(Cl)cc1N1CCN(CCCNc2ncnc3onc(-c4ccc(F)cc4)c23)CC1 | -28% | -27% |
| COc1ccc(S(=O)(=O)NCc2ccccn2)cc1C | i | -8% |
| COc1ccc(OCCN2CCC(C(=O)NC(c3ccc(F)cc3)c3ccc4ccccc4n3)CC2)cc1 (centres undefined) | i | -5% |
| COc1ccc(-n2cc(C(=O)NCc3ccccc3Cl)c3ccccc3c2=O)cc1 | -20% | -10% |
| Cc1ccc(S(=O)(=O)C(CNC(=O)C(=O)NCCc2ccc(Cl)cc2)c2cccs2)cc1 (centres undefined) | -11% | -22% |
| C=CCn1c(=N)n(CC(O)COc2ccccc2OC)c2ccccc21 (centres undefined) | 1% | 1% |
| CCCCC(=O)Nc1sc2c(c1C#N)CC(C)(C)OC2 | -13% | -3% |
| CC(Sc1nc(-c2ccccc2)cc(C(F)(F)F)n1)C(=O)NCc1ccco1 (centres undefined) | -25% | -12% |
| CN(C)S(=O)(=O)c1cccc(C(=O)NCc2cccs2)c1 | x | -23% |
| Cc1ccccc1NS(=O)(=O)c1cc(C(=O)Nc2cccc(N(C)S(C)(=O)=O)c2)ccc1C | u | -24% |
| COc1ccc(Cl)cc1C(=O)NN=C1CCCC1 | i | -6% |
| Nc1c(C(=O)NCC2CCCO2)c2nc3ccccc3nc2n1Cc1ccco1 (centres undefined) | u | 5% |
| CC(C)(C)SCCNC(=O)/C=C/c1ccc(F)cc1 | -16% | -14% |
| O=C(Nc1cc(Cl)ccc1-n1cncn1)c1cc(F)c(F)c(F)c1F | u | -20% |
| S=c1[nH]c2ccc(Cl)cc2s1 | i | -26% |
| CCc1ccc(CN(Cc2ccco2)C(=O)c2cc(-c3ccc(C)c(F)c3)on2)cc1 | -5% | -3% |
| Cc1c(C)n(CCCN(C)C)c2ncnc(NCc3ccccc3)c12 | -10% | -11% |
| CC[C@]1(O)CC(O[C@@H]2CC(N(C)C)C(O)C(C)O2)c2c(cc3c(c2O)C(=O)c2c(O)cccc2C3=O)C1C(=O)OC (some centres undefined) | 1% | 0% |
| Cc1ccc(N2C(=O)Nc3ccc(Br)cc3C2(O)C(=O)NCCCN(C)C)cc1C (centres undefined) | -6% | -2% |
| O=S(=O)(Nc1ccc(-c2cn3ccccc3n2)cc1)c1ccccc1 | -17% | -19% |
| O=C(O)C1CC2(Cl)C(Cl)=C(Cl)C1(Cl)C2(Cl)Cl (centres undefined) | -5% | -12% |
| CCc1nc2ccc(C(=O)NCCCn3ccnc3)cn2c1N(C)C(=O)COc1ccccc1 | 11% | 0% |
| Cc1ccc(C(=O)C2C(c3ccc(-c4ccccc4[N+](=O)[O-])o3)NC(=O)NC2(O)C(F)(F)F)cc1 (centres undefined) | u | u |
| CC(NS(=O)(=O)/C=C/c1ccccc1)C(=O)NCCc1ccc(S(N)(=O)=O)cc1 (centres undefined) | -16% | -15% |
| Cc1ccc(NC(=S)N2CCN(C)CC2)c(C)c1 | -18% | -6% |
| COc1ccc(CNC(=O)COC(=O)CCC2CCCCC2)cc1 | -3% | -5% |
| CCOC(=O)C1=NNC2C(=O)N(C3CCCCC3)C(=O)C12 (centres undefined) | -9% | 3% |
| CCOC(=O)Cn1cncc1-c1ccc([N+](=O)[O-])cc1 | i | -7% |
| CC(C)N(Cc1ccccc1)C(=S)Nc1cccnc1 | -9% | -2% |
| COC(=O)/C=C/c1c(C)[nH]c(=O)[nH]c1=O | -2% | 3% |
| Cc1cccc(-n2cc(-c3ccc([N+](=O)[O-])cc3)[nH]c2=S)c1 | -10% | -8% |
| CCC(C)(C)NC(=O)C(c1ccc(OC)cc1)N(C(=O)CCC(=O)Nc1cc(C)on1)c1ccc2c(c1)OCCO2 (centres undefined) | -21% | -12% |
| CC(C)(CO)C(O)C(=O)NCCC#N (centres undefined) | 13% | 4% |
| O=C1NC(Cc2ccc(O)cc2)c2nc3cc(Cl)ccc3c(=O)n2-c2cc3ccccc3cc21 (centres undefined) | u | u |
| O=C(NC1CCCCCCC1)C1CCN(S(=O)(=O)N2CCCC2)CC1 | u | -21% |
| CC(C)NS(=O)(=O)c1ccc(OCC(=O)Nc2ccc3c(c2)OCO3)cc1 | i | -1% |
| COc1ccc(OC)c(S(=O)(=O)Nc2ccc(F)cc2)c1 | -14% | -5% |
| COCCNC(=O)C1(C)CCCN(Cc2ccc(Oc3ccccc3)cc2)C1 (centres undefined) | 36%[activator] | -2% |
| CCc1nnc(NC(=O)c2ncc(Cl)c(Cl)c2Cl)s1 | i | -15% |
| CC(C)NC(=O)c1onc(CSc2nc3ccccc3[nH]2)c1C(=O)NC(C)C | i | -19% |
| Cc1cc(SCC(=O)N2c3ccccc3NC(=O)CC2C)nc2ccccc12 (centres undefined) | u | -26% |
| Cc1ccc(C(=O)N[C@H](C(=O)NC2CCCCC2)C(C)C)cc1 | -16% | -4% |
| CN1CCN(C(=O)C(=O)c2cn(CC(=O)N3CCCC3)c3ccccc23)CC1 | i | -5% |
| CC(C)Oc1ccc(C(=O)NCc2ccco2)cc1 | i | -17% |
| O=S(=O)(Nc1ncccn1)c1ccc(Nc2ncnc3ccccc23)cc1 | -11% | 0% |
| Brc1ccc(-c2c(-c3ccsc3)sc3ccccc23)cn1 | i | 0% |
| CCOC(=O)N1CCN(c2c(NCCOC)c(=O)c2=O)CC1 | i | -9% |
| O=C(NCC1CCCO1)c1ccc(N2CCCCC2)c([N+](=O)[O-])c1 (centres undefined) | -15% | -13% |
| CC(=O)Nc1ccc(NC(=O)COC(=O)CCNS(=O)(=O)c2c(Cl)cccc2Cl)cc1 | i | -9% |

Rewritten with values under each structure: entries from further up.
Values run as follows: Vaccinia mCherry | VACV Venus inh
COc1ccc(Cl)cc1C(=O)NN=C1CCCC1
 : i | -6%
Nc1c(C(=O)NCC2CCCO2)c2nc3ccccc3nc2n1Cc1ccco1 (centres undefined)
 : u | 5%
CC(C)(C)SCCNC(=O)/C=C/c1ccc(F)cc1
 : -16% | -14%

Continuation.
| molecule | Vaccinia mCherry | VACV Venus inh |
| --- | --- | --- |
| Cc1nc2cncc(Br)c2n1C | x | -17% |
| Cc1cc(NC(=O)CSc2c(C)[nH]c3ccccc23)no1 | -5% | -7% |
| Nc1n[nH]c(N)c1N=Nc1ccc(F)cc1 | u | -10% |
| O=C1N/C(=N\N=C\c2cccs2)SC1Cc1ccc(Cl)cc1Cl (centres undefined) | i | -4% |
| O=C(COC(=O)CNC(=O)c1ccccc1)NC(=O)NC1CCCCC1 | i | -13% |
| O=c1[nH]nc(-c2ccc(NCCCO)c([N+](=O)[O-])c2)c2ccccc12 | -7% | -23% |
| COc1ccccc1CNC(=O)C(=O)NCC1CCCO1 (centres undefined) | -13% | -2% |
| COc1ccc(CCNC(=O)Nc2nc(C(N)C3CCCCC3)cs2)cc1OC (centres undefined) | -8% | -18% |
| CC(=O)c1ccc(Oc2nc3c(c(=O)n(C)c(=O)n3C)n2C)cc1 | -10% | -2% |
| CCSc1cc(N2CCOCC2)nc(-c2ccccc2)n1 | -10% | -9% |
| O=C(NN=Cc1ccc2c(c1)CCC2)c1ccccc1O | -6% | -21% |
| C=C1C[C@@H]2C[C@@H]2CN(S(=O)(=O)c2ccc(C)cc2)[C@@H]1c1ccco1 | -6% | -1% |
| CC(=O)Nc1cc(C(=O)N2CCc3ccccc3C2)ccc1Sc1ccc(F)cc1 | -14% | -14% |
| COCCNc1nc2nonc2nc1NC(C)c1ccccc1Cl (centres undefined) | -4% | -9% |
| Cc1ccc(C(=O)OCc2nc3ccccc3s2)o1 | i | 0% |
| CCOC(=O)c1ccc(NC(=O)C2(c3ccc(Cl)cc3)CCCC2)cc1 | -6% | -24% |
| Cc1cc(NC(=O)Cn2nc(-c3cccs3)ccc2=O)cc(C)c1Br | i | -5% |
| Brc1cc2c(cc1/C=N/Nc1nc(N3CCOCC3)nc(N3CCOCC3)n1)OCO2 | i | -16% |
| Cn1c(=O)c2[nH]c(NCCCN3CCOCC3)nc2n(C)c1=O | x | -13% |
| CC(C)C(C(=O)NCc1ccco1)N(Cc1ccco1)C(=O)CNS(=O)(=O)c1ccccc1 (centres undefined) | i | -12% |
| Cc1cccc(N2C(=O)CS/C2=N\NC(=O)c2cccnc2)c1C | 1% | 4% |
| CCC(C)C(=O)Nc1nc2ccc(OC)cc2s1 (centres undefined) | i | -19% |
| Cc1ccccc1/C=N/n1c(-c2ccccn2)n[nH]c1=S | -1% | -2% |
| COc1cccc(/C=C/C(=O)N2CCN(c3n[nH]c(=O)[nH]c3=O)CC2)c1OC | -14% | 4% |
| COC(=O)C(CCSC)Nc1ncnc2onc(-c3ccc(F)cc3)c12 (centres undefined) | -4% | 3% |
| CNc1cnc(-c2cccc(C(=O)N3CCOCC3)c2)cn1 | 15% | -5% |
| Cc1ccccc1OCC(=O)OCC(=O)Nc1ccc2c(c1)OCO2 | -8% | -4% |
| O=C(CN1CCOCC1)Nc1ccc2c(c1)CCC2 | i | -4% |
| O=C(NCCc1nc2ccccc2n1CCOc1cccc2ccccc12)C1CCCCC1 | -14% | -26% |
| COc1cccc(NC(=O)C2CCN(S(=O)(=O)c3ccc4c(c3)NC(=O)C(C)S4)CC2)c1 (centres undefined) | i | -24% |

Single records (already shown).
CC[C@]1(O)CC(O[C@@H]2CC(N(C)C)C(O)C(C)O2)c2c(cc3c(c2O)C(=O)c2c(O)cccc2C3=O)C1C(=O)OC (some centres undefined) reads Vaccinia mCherry = 1%; VACV Venus inh = 0%
CC(=O)c1ccc(Oc2nc3c(c(=O)n(C)c(=O)n3C)n2C)cc1 reads Vaccinia mCherry = -10%; VACV Venus inh = -2%

Next structures follow:
| molecule | Vaccinia mCherry | VACV Venus inh |
| --- | --- | --- |
| Cc1ccccc1C(=O)Nc1nc(=S)ss1 | x | u |
| CCNC(=O)CC1C(=O)N(c2ccc(F)cc2)C(=O)N1Cc1ccc(C)cc1 (centres undefined) | -7% | -6% |
| O=S(=O)(NC1CCCCC1Sc1ncccn1)c1ccc(Cl)cc1 (centres undefined) | i | -13% |
| CCOC(=O)CCCNC(=O)CCNC(=O)c1ccc(OCCC(C)C)cc1 | -14% | -13% |
| Nc1nc(N)c2cc(S(=O)(=O)c3ccc4ccccc4c3)ccc2n1 | u | u |
| CN(C)c1nc(N(C)C)nc(N(C#N)CN2C(=O)c3ccccc3S2(=O)=O)n1 | -20% | 0% |
| CCc1ccc(NC(=O)C2CCCN2c2nn3c(=O)cc(C)nc3s2)cc1 (centres undefined) | -6% | -15% |
| CCc1nnc(NS(=O)(=O)c2ccc(N/C=C/C(=O)c3ccc(OC)cc3)cc2)s1 | i | 6% |
| C[C@]12CCC3C(CC[C@H]4C[C@@H](O)CC[C@]34C)C1C[C@@H](O)[C@@H]2O (some centres undefined) | i | -14% |
| COc1ccc(C(=O)Nc2cc(OCc3ccccc3)c(Cl)cc2Cl)cc1 | x | 14% |
| O=S(=O)(c1ccccc1)c1nc(-c2ccccc2)oc1N1CCN(c2cccc(Cl)c2)CC1 | -13% | -1% |
| CCOC(=O)c1sc(NC(=O)CSc2nnnn2-c2ccc(C)cc2)c(C(=O)OCC)c1C | i | -14% |
| Nc1[nH]c(C(=O)c2ccccc2)c(-c2ccccc2Br)c1C(=O)NCCc1c[nH]c2ccccc12 | -18% | -17% |
| O=c1cc2nc(-c3cccs3)nc(SCCOc3ccc(Cl)cc3)n2[nH]1 | -13% | -15% |
| Cn1c(C(=O)NCCN2CCN(c3ccccc3F)CC2)cc2c(=O)n(C)c3ccccc3c21 | -25% | -18% |

Screening results as filed in PubChem.
